NPYLR7 agonist: activates Aedes aegypti NPYLR7 receptor; HEK293T NPYLR7/Galpha15, GCaMP6s calcium fluorescence; activation, % at 10 µM; hit rate 0.15% among 270,000; in the data active = activation above about 40%;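 note: 0% = vehicle and 100% = reference agonist at the receptor; some compounds past the cut are filed as inactive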
NPYLR7 agonist max-min: second read-out of NPYLR7 agonist, no call of its own (marks repeat the call); activation, %; measured here: Max-Min RFU normalised activation; some inactives read as strong as hits;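 span of the calcium signal over five minutes; 0% = vehicle and 100% = native peptide agonist; compound fluorescence can raise it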
* marks the source's active call; other numbers are inactive results; & = joins results of further samples.

| smiles | NPYLR7 agonist | NPYLR7 agonist max-min |
| --- | --- | --- |
| Cc1nccn1CCCN1CCC2(C1)CN(C)C(=O)O2 (stereo not given) | 2.7 | 3.9 |
| CN1CCN(c2ccc(-c3nc(-c4cccc(C(F)(F)F)c4)no3)cn2)CC1=O | 12.5 | 0.1 |
| COc1ccccc1OC1CCN(c2nncc(-c3ccc(Cl)cc3)n2)CC1 | -10.1&3.5 | -9.6&2.6 |
| Cc1ccc(C2(O)CCN(S(=O)(=O)c3cn(C)cn3)CC2)nc1 | -4.8 | -8.7 |
| CN(C)P(=NC(=S)N1CCOCC1)(N(C)C)C12CC3CC(CC(C3)C1)C2 | 15.9 | 15.9 |
| COc1ccc2[nH]cc(C3CCN(S(=O)(=O)c4cc(F)cc(Cl)c4C)CC3)c2c1 | -1.8 | -8.3 |
| CCn1ncnc1C(C)NC(=O)c1cc(COc2cc(C)ccc2C)on1 (stereo not given) | -3.2 | -8.1 |
| CCOC(=O)N1CCC(NC(=O)CCN2Cc3cc(Cl)ccc3OC(C)C2)CC1 (stereo not given) | 21.1 | 14.2 |
| S=c1scnn1CN(Cc1ccccc1)C1CC1 | 3.6 | 0.3 |
| C/C(=C\c1ccco1)CN1CCC(N2CCC(C(=O)NCc3ccccn3)CC2)CC1 | -1.4&8.6 | -2.8&2.5 |
| CC(C)CN(CCC(=O)Nc1ccccc1)c1nc(-c2cccc(Br)c2)nc2ccccc12 | -5.5 | -4.2 |
| CCNC(=O)C1(C)CCN1C(=O)Cc1ccc(-c2ccccc2)cc1 (stereo not given) | -3.2 | 25.3 |
| Cc1nc2c(sc3cccc(F)c32)c(=O)n1CC(=O)NC1CCCC1 | -1.9 | -5.4 |
| Cc1nc(N2CCCC(C(=O)NCCC3=CCCCC3)C2)nc2cc(S(C)(=O)=O)ccc12 (stereo not given) | 13.7 | -2.6 |
| Nc1ncnc2sc3c(c12)CCN(C(=O)CCc1cccs1)C3 | -1.1 | -0.9 |
| Cc1ccc(COc2cn(CC(=O)N3CCN(c4ccccc4)CC3)c(C)cc2=O)cc1 | 0.3 | -0.2 |
| Cc1ccc(-c2c(C)sc3nc(CN4CCN(Cc5ccccc5)CC4)[nH]c(=O)c23)cc1 | -1.6 | -6.7 |
| Fc1cccc2ccc(CN3CCCC(N4CCc5ccccc5C4)C3)nc12 (stereo not given) | -2.9 | -0.7 |
| O=c1ccc2c([nH]1)CCCC2N=Cc1sc2ccccc2c1Cl (stereo not given) | 21.5 | 16.5 |
| O=C(NC1CCN(c2ccccc2C(=O)NCc2ccncc2)CC1)c1cccc(Cl)c1 | 0.0 | 9.4 |
| O=C(CN1CCN(Cc2nc3ccsc3c(=O)[nH]2)CC1)NC1CC1 | 0.7 | 2.6 |
| CC(C)N1C(=O)COCc2cc(-c3cccc(C#N)c3)ccc21 | 5.5 | 1.4 |
| N=C(N)SCCc1cnc[nH]1 | 7.5&-1.0 | -4.8&-6.9 |
| COc1cccc(-c2cc(C(=O)NC(C)c3ccccc3)n3nc(-c4ccccc4)cc3n2)c1 (stereo not given) | -3.0 | 4.7 |
| O=C(Cn1nc2c(c1NC(=O)CCCc1ccccc1)CSC2)NCc1ccco1 | -4.4 | 2.4 |
| COc1ccccc1C(=O)C1CCCN(C(=O)c2cc(-c3ccccc3F)n[nH]2)C1 (stereo not given) | 11.1 | 0.3 |
| CCCCc1ncc2c(n1)C[C@@H](Cc1ccccc1)NC2=O | 15.8 | 9.9 |
| CCOc1cc(C(=O)NCC(=O)N2CCCC2)cc(OCC)c1OCC | 14.3 | 20.7 |
| O=C(NCc1ccc(Cl)cc1)c1cc2nc(-c3ccc(Br)cc3)cc(C(F)(F)F)n2n1 | -4.8 | -12.9 |
| CCOCCCN(CC(=O)N1CCc2sccc2C1c1ccccc1)C(=O)C1C[C@H]1c1ccccc1 (stereo not given in full) | -11.7 | 1.5 |
| CCNC(=O)N(CCOC)Cc1cc(Cl)ccc1OS(=O)(=O)c1ccc(F)cc1 | 21.9 | 17.5 |
| Cc1c(C(C)NC(=O)CN2CCOC2=O)cnn1-c1cccc2ccccc12 (stereo not given) | 13.1&1.5 | 4.5&-1.9 |
| Cn1nnc(-c2ccc(C(=O)Nc3cnc4n3CCCC4)cc2)n1 | -5.9 | -12.1 |
| CCN(CC)P1(=Nc2ccccc2Cl)C(=C2N(C)c3ccccc3C2(C)C)C=NN1C (stereo not given) | 6.2 | 9.4 |
| COc1ccccc1C(=O)N(CC(=O)N1CCc2sccc2C1COc1ccc(C(C)C)cc1)CC1CCCO1 (stereo not given) | -1.0 | 6.6 |
| CSc1nnc(CSc2ncccn2)n1CCc1ccccc1 | 3.0 | 0.7 |
| O=C(NCCn1cccc1)C1CC2CCC1O2 (stereo not given) | 10.3 | 7.9 |
| Cc1ccc(NS(=O)(=O)c2cccc(-n3cnnn3)c2)cc1C(F)(F)F | -1.7 | -8.9 |
| CCOc1ccccc1N1CCN(Cc2nc(Cc3ccc(OC)c(OC)c3)no2)CC1 | 16.0 | 4.8 |
| CC/C=C(\C)c1c(-c2ccccc2)ncn1Cc1nc(COC)no1 | 22.9 | 16.8 |
| Cc1occc1C(=O)N1CCC(N2CCCC(C(=O)N3CCCC3)C2)CC1 (stereo not given) | 19.4 | 11.6 |
| O=C(NCc1ccccc1Cn1cccn1)C1CCN(c2ccccc2)C1=O (stereo not given) | 2.5 | 0.6 |
| Cc1ccc(-n2c(CCC(=O)NCCCN3CCOCC3)cc3c2-c2ccccc2OC3)c(F)c1 | 1.9 | 0.8 |
| CC1CC2C3CCC4=CC(=O)C=C[C@]4(C)[C@@]3(F)[C@@H](O)C[C@]2(C)[C@@]1(O)C(=O)CO (stereo not given in full) | 5.5&7.1 | -10.6&-8.2 |
| CCC(C)C(NC(=O)c1cc(S(=O)(=O)N2CCCC2)ccc1C)C(=O)OC (stereo not given) | 4.3 | 7.9 |
| CCCCN(C)C(=O)c1sc2nc(-c3cccc([N+](=O)[O-])c3)cn2c1C | 6.5 | 0.8 |
| Cc1cc(C(=O)NCC2CCN(c3cnn(C)c(=O)c3)C2)ccc1O (stereo not given) | -2.3 | -6.7 |
| Cc1ccc(-n2c(=O)[nH]c3c(C(=O)NCc4ccccc4)cn(C)c3c2=O)cc1 | -0.6 | -1.5 |
| O=C1NC2(CCN(C(=O)CSc3ccccc3)CC2)Nc2cccc(Cl)c21 | 2.7 | 5.7 |
| CCOC(=O)C1=C(C)NC2=C(C(=O)C(C(=O)OC)C(C)C2)C1c1ccc(C)o1 (stereo not given) | 0.1 | -0.7 |

Shown as labelled records: part of the list above.
> CCCCN(C)C(=O)c1sc2nc(-c3cccc([N+](=O)[O-])c3)cn2c1C
  NPYLR7 agonist: 6.5 | NPYLR7 agonist max-min: 0.8
> Cc1cc(C(=O)NCC2CCN(c3cnn(C)c(=O)c3)C2)ccc1O (stereo not given)
  NPYLR7 agonist: -2.3 | NPYLR7 agonist max-min: -6.7

More entries.
| smiles | NPYLR7 agonist | NPYLR7 agonist max-min |
| --- | --- | --- |
| CCCCCCc1ccc(C(=O)N(CCOC)CC(=O)Nc2cc(C(C)(C)C)nn2-c2ccc(OC)cc2)cc1 | 3.6 | 11.6 |
| COC(=O)c1ccc(N2C(=O)CSC2c2ccc(F)c(F)c2)cc1 (stereo not given) | 0.3 | 6.0 |
| CNC(=O)c1nnc2n1CCN(C(=O)c1ccccc1)C2 | 11.2 | 5.8 |
| CCN1CCN(c2c(CN(CCOC)C(=O)c3cccs3)c(C)nn2-c2cccc(F)c2)CC1 | -0.1 | 1.7 |
| CC(=O)Nc1ccc(CN2CCC2(C)C(=O)Nc2ccc(C)c(O)c2)cc1 (stereo not given) | 4.5 | 2.2 |
| Cc1ccc(CN2CC(O)CN(C(=O)C3CCCCC3)CC2=O)cc1 (stereo not given) | 6.7 | 19.9 |
| Cc1cc2c(cc1C)C(=O)NC(C)(C)C2 | -0.7 | 3.3 |
| COC(=O)c1ccc(COC(CN2CCN(C(=O)Nc3ccccc3C)CC2)c2cccc(OC)c2)cc1 (stereo not given) | -3.8 | 7.3 |
| Cc1ccc([N+](=O)[O-])cc1NC(=O)CC(C)C | -1.9 | -6.8 |
| CCCCn1c(N)c(N(C)C(=O)c2ccc(Br)o2)c(=O)[nH]c1=O | -0.4 | -0.5 |
| COc1ccc(/C=C2\N=C(c3ccccc3)OC2=O)cc1OC | -4.3 | -7.3 |
| O=C1CCCc2cc(NC(=O)c3csc(-c4ccccc4F)n3)ccc2N1 | 2.0 | 75.2 |
| CN(CCC#N)C(=O)CN1CCN(S(=O)(=O)c2ccc3c(c2)CCCC3)CC1 | -6.1 | -7.0 |
| O=C(COCc1ccccc1)N1CCC(c2nc(-c3ccc(C(F)(F)F)cc3)no2)CC1 | 2.4 | -1.5 |
| Cc1n[nH]c(C)c1S(=O)(=O)Nc1ccc(Cl)cc1 | -0.9 | -2.4 |
| Cc1ccc(CN(CCCO)C(=O)c2cccn2C)s1 | 4.0 | 3.5 |
| Cc1nc(-n2ccc3nc4ccn(Cc5ccco5)c(=O)c4cc3c2=O)n[nH]1 | 26.8 | 6.4 |
| CCOC(=O)N1CCC(C(=O)N2CCN(S(=O)(=O)c3c(C)cc(C)cc3C)CC2)CC1 | 0.5 | 3.4 |
| N#CC1C(=N)C(C#N)(C#N)[C@@H](c2cccc(Cl)c2)[C@@H]2CSCC=C12 (stereo not given in full) | 15.3 | 8.5 |
| O=C(COc1ccccc1)Nc1cccc(C2SCC(=O)N2c2ccc3c(c2)OCO3)c1 (stereo not given) | -3.7 | -1.2 |
| c1ccc(-c2cc(N3CCC(c4ccccc4)CC3)n3ncnc3n2)cc1 | 1.2 | -4.4 |
| FC(F)(F)c1ccc(Sc2ncccn2)nc1 | 3.4 | 0.7 |
| Cc1ccccc1S(=O)(=O)NC(=O)C1(C)CCN1C(=O)CCc1cccs1 (stereo not given) | -4.5 | -10.0 |
| Cc1cccc(OCCn2c(CCCO)nc3ccccc32)c1 | -1.3 | 3.1 |
| COc1ccc(C(C)=O)cc1CN1C(=O)C(C)ON=C1c1ccccc1F (stereo not given) | 10.6 | 4.8 |
| Nc1nnc(SCCc2ccccc2)s1 | 6.4 | 9.6 |
| Cc1ccn2c(=O)c(C(=O)NC3CCCC3)c(O)nc2c1 | -1.2 | 44.3 |
| Fc1nc(F)c(F)c(C#Cc2ccccc2)c1F | -13.7 | -20.6 |
| Cc1nc(SC(C(=O)N2CCOCC2)c2ccccc2)c(C#N)c(C)c1C (stereo not given) | 14.6 | 5.3 |
| CCOc1ccc2nc(N3CCCC(C(=O)N(C)Cc4ccc5nccnc5c4)C3)nc(C)c2c1 (stereo not given) | 5.3 | 5.6 |
| Cc1cc(C)n2ncc(CN(C)Cc3nnc(-c4ccccc4)o3)c2n1 | -3.4 | -4.7 |
| CCc1cc(Cl)c(OC)c(C(=O)NC[C@@H]2CCCN2CC)c1O | -2.0 | -8.4 |
| Cc1[nH]n(CCc2nc(-c3ccccc3)cs2)c(=O)c1C1=NCCCCC1 | 0.4 | -0.6 |
| Nc1nc2c(s1)CCc1ccccc1-2 | -5.0 | -3.5 |
| COc1ccc(CNC(=O)CCN2C(=O)COc3ccccc32)cc1OC | 0.9 | -2.9 |
| O=C(Cc1ccc2c(c1)CCO2)NCc1ccccn1 | -3.0 | -1.2 |
| O=S(=O)(Nc1ccc(Br)cc1F)c1cnc[nH]1 | 7.2 | 7.3 |
| COc1ccc(C2=NN3C(C2)c2ccccc2OC32CCCC2)cc1 (stereo not given) | 23.8 | 13.4 |
| COCC(=O)N1CCC(n2cnc3ccccc32)CC1 | 13.2 | 11.1 |
| CCN1CCN(c2c(CN(CCOC)C(=O)COCc3ccccc3)c(C)nn2-c2ccccc2)CC1 | 1.3 | 2.5 |
| CCc1nn(C)c(CC)c1S(=O)(=O)Nc1ccc(-n2cncn2)c(F)c1 | 4.0 | 2.3 |
| Cc1ccc(OCc2nc(CCc3ccccc3)n[nH]2)cc1 | 8.3 | 6.4 |
| N=c1oc2ccccc2cc1C(=O)NCc1ccccc1 | 3.0 | 3.6 |

A draw from above in order of SMILES length, high to low.
| smiles | NPYLR7 agonist | NPYLR7 agonist max-min |
| --- | --- | --- |
| CCN1CCN(c2c(CN(CCOC)C(=O)COCc3ccccc3)c(C)nn2-c2ccccc2)CC1 | 1.3 | 2.5 |
| CCOc1ccc2nc(N3CCCC(C(=O)N(C)Cc4ccc5nccnc5c4)C3)nc(C)c2c1 (stereo not given) | 5.3 | 5.6 |
| Cc1[nH]n(CCc2nc(-c3ccccc3)cs2)c(=O)c1C1=NCCCCC1 | 0.4 | -0.6 |
| Cc1nc(SC(C(=O)N2CCOCC2)c2ccccc2)c(C#N)c(C)c1C (stereo not given) | 14.6 | 5.3 |
| COc1ccc(C(C)=O)cc1CN1C(=O)C(C)ON=C1c1ccccc1F (stereo not given) | 10.6 | 4.8 |
| Cc1cc(C)n2ncc(CN(C)Cc3nnc(-c4ccccc4)o3)c2n1 | -3.4 | -4.7 |
| CCc1cc(Cl)c(OC)c(C(=O)NC[C@@H]2CCCN2CC)c1O | -2.0 | -8.4 |
| COc1ccc(CNC(=O)CCN2C(=O)COc3ccccc32)cc1OC | 0.9 | -2.9 |
| COc1ccc(C2=NN3C(C2)c2ccccc2OC32CCCC2)cc1 (stereo not given) | 23.8 | 13.4 |
| Cc1ccn2c(=O)c(C(=O)NC3CCCC3)c(O)nc2c1 | -1.2 | 44.3 |
| Cc1ccc(OCc2nc(CCc3ccccc3)n[nH]2)cc1 | 8.3 | 6.4 |
| Cc1cccc(OCCn2c(CCCO)nc3ccccc32)c1 | -1.3 | 3.1 |
| O=C(Cc1ccc2c(c1)CCO2)NCc1ccccn1 | -3.0 | -1.2 |
| Fc1nc(F)c(F)c(C#Cc2ccccc2)c1F | -13.7 | -20.6 |
| Nc1nc2c(s1)CCc1ccccc1-2 | -5.0 | -3.5 |
| Nc1nnc(SCCc2ccccc2)s1 | 6.4 | 9.6 |

Screening data as filed in PubChem.

An excerpt; count on the stated rates, not on these rows.
